ALR inh: inhibitors of human sulfhydryl oxidase ALR; P55789; purified ALR, DTT oxidation, H2O2 HRP-luminol luminescence; inhibition, % (no concentration beside the values); actives 3.8% (n = 290,000);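 active means mean and each replicate at 75% or more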;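 further: stock transfer was 7.5 nL into about 7.5 µL; 0% = neutral wells and 100% = wells with inactivated enzyme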
Target sequence (P55789 whole entry, looked up): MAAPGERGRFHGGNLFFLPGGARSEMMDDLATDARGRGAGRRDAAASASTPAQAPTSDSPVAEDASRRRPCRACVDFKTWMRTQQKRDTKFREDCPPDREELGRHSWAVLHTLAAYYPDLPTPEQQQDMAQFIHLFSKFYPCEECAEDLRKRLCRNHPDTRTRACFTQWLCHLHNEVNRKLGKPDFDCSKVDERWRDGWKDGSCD
MLL AF4-AF9 inh: blocks AF4 peptide binding to human AF9; P42568; AlphaScreen, biotin-AF4 peptide binding to FLAG-AF9; inhibition, % at 10 µM; actives 0.47% (n = 350,000); AID 651704;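 active means every replicate reaching a set inhibition limit, whatever the replicate mean, cut at about 25% in these data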;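 further: 0% = plate neutral control median and 100% = total signal loss; the record names both 10 and 1 µM as test concentration; the first replicate is given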
Vif A3G: HIV-1 Vif–A3G interaction blockers – biochemical, TR-FRET, GST-Vif 1-94, biotin-A3G peptide, dose response retest, primary screen (AID 1117319); TR-FRET GST-Vif / biotin-A3G peptide binding; higher % means a stronger effect; test concentration not given here; strong numbers were not always called active; inhibition, %; hits with a dose series show IC50 in µM; actives 0.57% (n = 260,000);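 active means above the screen mean plus three standard deviations and confirmed in dose response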;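 further: Vif residues 1-94 fused to GST binding biotinylated APOBEC3G peptide 110-148; 0% = full assay without inhibitor and 100% = GST in place of GST-Vif; retest series ran down from 100 µM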
Ecoli rRNA inh: inhibits bacterial ribosomal RNA function over humanized ribosomes | E. coli WT GFP vs humanized-ribosome RFP mutants, fluorescence, 24 h; active compounds read low; DMSO median 0, no signal -100 | GFP signal change (wild-type ribosome), % (test concentration not listed) | actives 1.6% (n = 350,000) | AID 720706;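 active means significant combined selectivity score with lowered wild-type GFP, culture density cut under 30%, mutant RFP and density less affected; inactive means any of these conditions unmet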; further: one replicate is shown; some compounds called inactive have numbers as strong as hits
HNF4A DNA FP: change in binding of human HNF4 alpha to DNA; activity change, % at 10 µM; P41235; actives 0.3% (n = 360,000); HNF4a-FITC DNA binding, fluorescence polarization, 1 h; in the data active means activity change above about 30%, passing the limit was not always enough;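 further: controls were the assay level and a saturating level of protein; the project sought stronger binding though the title names inhibitors; some compounds called inactive have numbers as strong as hits; positive values seem to mean higher polarization but the record does not say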
Target sequence (P41235 whole entry, looked up): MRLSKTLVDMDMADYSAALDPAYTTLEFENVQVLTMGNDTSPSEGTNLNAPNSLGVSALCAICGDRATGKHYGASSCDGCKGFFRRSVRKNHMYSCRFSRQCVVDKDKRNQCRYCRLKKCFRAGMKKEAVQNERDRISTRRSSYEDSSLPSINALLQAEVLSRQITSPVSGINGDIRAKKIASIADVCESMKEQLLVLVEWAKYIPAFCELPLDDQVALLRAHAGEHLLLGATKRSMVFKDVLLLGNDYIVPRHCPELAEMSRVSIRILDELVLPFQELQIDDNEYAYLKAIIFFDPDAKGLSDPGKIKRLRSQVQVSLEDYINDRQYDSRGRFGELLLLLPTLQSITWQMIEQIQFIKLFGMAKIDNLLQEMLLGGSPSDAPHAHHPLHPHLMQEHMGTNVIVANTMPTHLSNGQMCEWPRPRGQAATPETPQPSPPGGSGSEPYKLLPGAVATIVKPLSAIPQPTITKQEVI
FGF22 binding: shifts melting point of recombinant human FGF22 | Q9HCT0 | recombinant FGF22 thermal shift, SYPRO orange fluorescence; percent of sucrose octasulfate shift, DMSO zero | calls only at 9.99 µM | actives 1.5% (n = 340,000) | AID 651658;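 active means melting point raised past a set limit in the mean and every replicate; three in four hits are not shown here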
Target sequence (Q9HCT0 whole entry, looked up): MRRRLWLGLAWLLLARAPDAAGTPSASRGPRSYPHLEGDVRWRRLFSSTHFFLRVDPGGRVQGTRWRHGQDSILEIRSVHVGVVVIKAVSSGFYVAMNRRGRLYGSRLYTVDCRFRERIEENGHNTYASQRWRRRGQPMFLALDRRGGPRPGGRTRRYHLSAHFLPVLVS
Ecoli growth: E. coli growth inhibition. Escherichia coli growth, OD600, 23 h; active compounds read low. OD600 absorbance (test concentration not listed). actives 0.21% (n = 330,000);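 active means OD600 absorbance below the run mean of sample wells minus 3.6 SD, in any replicate, cut at about 0.56 in these data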;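 further: stock transfer was 300 nL into about 60 µL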
Ecoli rRNA inh OD600: second read-out of Ecoli rRNA inh, no call of its own (marks repeat the call); OD600 change, %; measured here: OD600 growth;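 optical density of the mix in the first replicate; 0 = DMSO median and -100 = no signal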
Ecoli rRNA inh RFP: also measured in Ecoli rRNA inh; calls as there; RFP signal change, %; measured here: RFP humanized mutant strains;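 first replicate; 0 = DMSO median and -100 = no signal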
An asterisk follows results filed as active; & = joins results of further samples. This is a subset. The share of hits here may be higher or lower than overall.

`Cc1ccccc1-n1cc(CNC(=O)C2CCC(=O)N(C3CC3)C2)cn1` (configuration not stated) gave ALR inh -4.1, MLL AF4-AF9 inh -0.3, Vif A3G 1.2%, Ecoli rRNA inh 18.5, HNF4A DNA FP -0.1, FGF22 binding inactive, Ecoli growth 0.702, Ecoli rRNA inh OD600 13.2 and Ecoli rRNA inh RFP 1.3.
Screening O=C(Nc1ccc(C(=O)O)cc1)/C(=C\c1ccc([N+](=O)[O-])cc1)NC(=O)c1ccco1 returned MLL AF4-AF9 inh 3.1, Ecoli rRNA inh 14.9, HNF4A DNA FP 3.5, FGF22 binding inactive, Ecoli rRNA inh OD600 20.4 and Ecoli rRNA inh RFP -0.3.
Screening Cc1cnc(NC(=O)CC2CCCC2)s1 returned ALR inh -7.5, MLL AF4-AF9 inh 0.4, Vif A3G 19.5%, Ecoli rRNA inh 10.1, HNF4A DNA FP -3.6, FGF22 binding inactive, Ecoli growth 0.624, Ecoli rRNA inh OD600 8.3 and Ecoli rRNA inh RFP -12.3.
`Cc1nn(C)cc1NC(=O)C[C@H]1CC[C@@H]2[C@@H](COc3ccc(NC(=O)c4cccc(F)c4)cc3C(=O)N2C)O1` gave MLL AF4-AF9 inh -2.4, Ecoli rRNA inh 2.1, FGF22 binding inactive, Ecoli rRNA inh OD600 6.8 and Ecoli rRNA inh RFP 0.6.
For COCCNc1nc(Oc2cccc3ccccc23)c2sccc2n1 the results were MLL AF4-AF9 inh -1.6, Ecoli rRNA inh -27.1, HNF4A DNA FP 3.3, FGF22 binding inactive, Ecoli rRNA inh OD600 -55.2 and Ecoli rRNA inh RFP 1.0.
Screening C[C@H](CO)N1C[C@H](C)[C@H](CN(C)CC2CC2)Oc2ccc(NS(=O)(=O)c3ccc(F)cc3)cc2CC1=O returned MLL AF4-AF9 inh -2.2, Ecoli rRNA inh 0.5, FGF22 binding inactive, Ecoli rRNA inh OD600 6.5 and Ecoli rRNA inh RFP -1.8.
Screening COc1ccc(N2CCN(C(=O)COC(=O)CNC(=O)c3cccc(OC(F)F)c3)CC2)cc1 returned ALR inh 45.7, MLL AF4-AF9 inh -12.5, Vif A3G 2.5%, Ecoli rRNA inh -0.8, HNF4A DNA FP 4.7, FGF22 binding inactive, Ecoli growth 0.675, Ecoli rRNA inh OD600 4.7 and Ecoli rRNA inh RFP 1.9.
COc1ccc(CCCC(=O)NC2CCCCC2C)c(C)c1 (configuration not stated) was read as ALR inh -8.3, Vif A3G 2.7%, HNF4A DNA FP 3.9 and Ecoli growth 0.692.
`O=C(Nc1ccc([N+](=O)[O-])cc1)c1nc[nH]c1C(=O)NC1CCCCC1` gave ALR inh -15.8, MLL AF4-AF9 inh -0.4, Vif A3G -7.5%, Ecoli rRNA inh 22.7, HNF4A DNA FP 2.5, FGF22 binding inactive, Ecoli growth 0.715, Ecoli rRNA inh OD600 16.2 and Ecoli rRNA inh RFP 2.1.
Screening CC(C)N(Cc1nc(-c2ccc3c(c2)OCO3)no1)Cc1nccn1C returned ALR inh -4.7, MLL AF4-AF9 inh 0.7, Vif A3G -3.0%, Ecoli rRNA inh 3.7, HNF4A DNA FP 2.9, FGF22 binding inactive, Ecoli growth 0.689, Ecoli rRNA inh OD600 6.3 and Ecoli rRNA inh RFP 2.4.
Screening COc1ccc(-c2ccc3n(c2=O)C[C@@H]2[C@@H](CO)[C@H](C(=O)N(C)C)[C@H]3N2Cc2cncnc2)cc1 returned MLL AF4-AF9 inh -1.0, Ecoli rRNA inh -1.2, FGF22 binding inactive, Ecoli rRNA inh OD600 -13.6 and Ecoli rRNA inh RFP -1.2.
Screening COc1ccc([N+](=O)[O-])cc1NCc1ccccc1C returned ALR inh -0.1, Vif A3G -0.3%, HNF4A DNA FP -1.3 and Ecoli growth 0.69.
For CC(C)(Oc1ccc(Cl)cc1)C(=O)NCCCn1ccnc1 the results were ALR inh -3.5, Vif A3G -5.0%, Ecoli rRNA inh 7.0, HNF4A DNA FP 1.6, Ecoli growth 0.69, Ecoli rRNA inh OD600 9.3 and Ecoli rRNA inh RFP 0.6.
`CCCn1c(=O)c2ccccc2n2c(SCC(=O)N3CCc4ccccc4C3)nnc12` gave ALR inh -12.8, MLL AF4-AF9 inh -0.2, Vif A3G 7.0%, Ecoli rRNA inh -2.6, HNF4A DNA FP 2.6, FGF22 binding inactive, Ecoli growth 0.657, Ecoli rRNA inh OD600 -4.4 and Ecoli rRNA inh RFP -7.2.
`FC(F)(F)c1cccc(-c2nnc(-c3ccccc3)c(N3CCOCC3)n2)c1` gave ALR inh -3.1, Vif A3G 4.8%, HNF4A DNA FP -6.0 and Ecoli growth 0.725.
Screening COc1ccc(-n2ncc3c(=O)n(CC(=O)NC(C)C)cnc32)cc1 returned ALR inh -8.0, MLL AF4-AF9 inh -5.8, Ecoli rRNA inh 6.5, HNF4A DNA FP 0.5, FGF22 binding inactive, Ecoli growth 0.669, Ecoli rRNA inh OD600 9.2 and Ecoli rRNA inh RFP 1.6.
For C[C@@H]1CN([C@@H](C)CO)S(=O)(=O)c2ccc(C3=CCCCC3)cc2O[C@H]1CN(C)C(=O)Cc1cccnc1 the results were MLL AF4-AF9 inh 7.6, Ecoli rRNA inh -3.0, FGF22 binding inactive, Ecoli rRNA inh OD600 -9.7 and Ecoli rRNA inh RFP 3.2.
For CC(=O)N(C)C[C@@H]1Oc2ncc(-c3cccnc3)cc2C(=O)N([C@@H](C)CO)C[C@H]1C the results were MLL AF4-AF9 inh -2.6, Ecoli rRNA inh 2.0, FGF22 binding inactive, Ecoli rRNA inh OD600 7.0 and Ecoli rRNA inh RFP -1.4.
Screening CN(C)c1ccc(CN2CCCCCC2)cc1 returned ALR inh 23.4, Vif A3G 8.6%, HNF4A DNA FP 3.5 and Ecoli growth 0.678.
For CCCCN(C(=O)Cn1nnc2ccccc21)C(C(=O)NCc1ccco1)c1ccncc1 (configuration not stated) the results were ALR inh 2.7, Vif A3G 17.2%&-0.2%, HNF4A DNA FP -3.5 and Ecoli growth 0.812.
CCS(=O)(=O)Nc1ccc2c(c1)C(=O)N(C)[C@H]1CC[C@@H](CC(=O)NCc3ccccc3F)O[C@@H]1CO2 was read as MLL AF4-AF9 inh -18.7, Ecoli rRNA inh 0.8, FGF22 binding inactive, Ecoli rRNA inh OD600 2.6 and Ecoli rRNA inh RFP -1.1.
For Cc1ccc(Cc2c(-c3ccc(F)cc3)nc3ccc(Cl)cn23)cc1 the results were MLL AF4-AF9 inh 0.4, Vif A3G -1.4%, Ecoli rRNA inh -8.3, HNF4A DNA FP -2.6, FGF22 binding inactive, Ecoli rRNA inh OD600 -33.5 and Ecoli rRNA inh RFP -2.5.
`COC(=O)c1ccc2nc(-c3cccc(Br)c3)c(Cc3ccccc3)n2c1` gave MLL AF4-AF9 inh -1.5, Ecoli rRNA inh -2.2, HNF4A DNA FP -1.1, FGF22 binding inactive, Ecoli rRNA inh OD600 4.8 and Ecoli rRNA inh RFP 14.2.
For COc1cc2nc(=S)n3[nH]c(CCn4c(C)nc5ccccc54)nc3c2cc1OC the results were ALR inh 20.9, Vif A3G 13.2%, Ecoli rRNA inh -4.0, HNF4A DNA FP -0.4, Ecoli growth 0.721, Ecoli rRNA inh OD600 11.7 and Ecoli rRNA inh RFP -4.9.
CN(C)CCCC(=O)c1ccc2c(c1)OCO2 was read as ALR inh -0.1, Vif A3G -0.7%, HNF4A DNA FP -1.1 and Ecoli growth 0.697.
Oc1ccc(-c2nc3ncccn3c2Nc2ccc3c(c2)OCCO3)cc1 was read as ALR inh 93.1*, Vif A3G 0.5%, HNF4A DNA FP 2.3 and Ecoli growth 0.799.
For CCN(CC)C(=O)C1CCCN(Cc2ccc3c(c2)OCO3)C1 (configuration not stated) the results were Vif A3G 6.0%, HNF4A DNA FP -2.9 and Ecoli growth 0.685.
Screening COCCn1c(=NC(=O)c2ccccc2[N+](=O)[O-])sc2cc(S(C)(=O)=O)ccc21 returned ALR inh 55.5, MLL AF4-AF9 inh -2.6, HNF4A DNA FP -0.2, FGF22 binding inactive and Ecoli growth 0.727.
CC(=O)Nc1ccc(C=NNC(=O)C2CC2)cc1 was read as MLL AF4-AF9 inh 1.8, Vif A3G -12.4%, Ecoli rRNA inh 11.1, HNF4A DNA FP -3.1, FGF22 binding inactive, Ecoli growth 0.695, Ecoli rRNA inh OD600 10.5 and Ecoli rRNA inh RFP -1.7.
COc1cccc(C=Nc2ccc3c(c2)CCC3)c1O was read as ALR inh 15.9, MLL AF4-AF9 inh -6.3, Vif A3G -2.0%, Ecoli rRNA inh 7.0, HNF4A DNA FP 4.6, FGF22 binding inactive, Ecoli growth 0.649, Ecoli rRNA inh OD600 10.6 and Ecoli rRNA inh RFP -1.8.
CCOC(=O)N1CCC(NC(=O)CCS(=O)(=O)c2ccc3c(c2)CCN3C(C)=O)CC1 was read as ALR inh -7.0, Vif A3G -3.6%, HNF4A DNA FP 4.4 and Ecoli growth 0.678.
O=S(=O)(c1cnc(Cl)c(Br)c1)N1CCc2ccccc21 was read as MLL AF4-AF9 inh 1.0, Vif A3G 13.1%, Ecoli rRNA inh -0.9, HNF4A DNA FP 1.4, FGF22 binding inactive, Ecoli growth 0.686, Ecoli rRNA inh OD600 -6.3 and Ecoli rRNA inh RFP -8.5.
Screening Cc1cc(C(=O)N2CCCc3ccccc32)no1 returned ALR inh -21.7, MLL AF4-AF9 inh 0.1, Vif A3G 4.0%, Ecoli rRNA inh 10.6, HNF4A DNA FP -2.3, FGF22 binding inactive, Ecoli growth 0.685, Ecoli rRNA inh OD600 5.4 and Ecoli rRNA inh RFP -3.7.
For CC(CCc1ccccc1)NC(=O)CSc1cccc[n+]1[O-] (configuration not stated) the results were ALR inh 0.0, MLL AF4-AF9 inh -2.7, Vif A3G 5.0%, Ecoli rRNA inh 13.2, HNF4A DNA FP -0.8, FGF22 binding inactive, Ecoli growth 0.641, Ecoli rRNA inh OD600 9.6 and Ecoli rRNA inh RFP -6.7.
Screening CCOC(=O)CSc1nc(NCc2ccco2)c2ccccc2n1 returned ALR inh -1.8, Vif A3G 5.0%, HNF4A DNA FP -0.1 and Ecoli growth 0.703.
O=C(COC(=O)c1ccc(Br)o1)Nc1ccc(S(=O)(=O)N2CCCC2)cc1 was read as Vif A3G 2.5%, HNF4A DNA FP 0.0 and Ecoli growth 0.677.
Screening CS(=O)(=O)c1cccc(C(=O)Nc2ccccc2Cc2ccccc2)c1 returned ALR inh -5.4, MLL AF4-AF9 inh -4.2, Vif A3G -3.7%, Ecoli rRNA inh 7.0, HNF4A DNA FP 1.6, FGF22 binding inactive, Ecoli growth 0.674, Ecoli rRNA inh OD600 1.6 and Ecoli rRNA inh RFP 5.6.
CCCCN(C)CCNC(=O)c1cc2c(-c3cccc(OC)c3)nn(C)c2s1 was read as ALR inh 0.7, MLL AF4-AF9 inh 4.2, Ecoli rRNA inh -7.5, HNF4A DNA FP -2.4, FGF22 binding inactive, Ecoli growth 0.636, Ecoli rRNA inh OD600 -2.5 and Ecoli rRNA inh RFP 3.6.
`S=C(Nc1ccccc1)Nc1ccc2cn[nH]c2c1` gave ALR inh 24.5, MLL AF4-AF9 inh -4.8, Ecoli rRNA inh -3.5, HNF4A DNA FP 2.4, FGF22 binding inactive, Ecoli rRNA inh OD600 -7.7 and Ecoli rRNA inh RFP -9.2.
`COc1cc(C(=O)O/N=C(\N)c2ccncc2)cc(OC)c1OC` gave ALR inh -4.8, MLL AF4-AF9 inh -1.3, Vif A3G 16.7%, Ecoli rRNA inh 0.2, HNF4A DNA FP -1.8, FGF22 binding inactive, Ecoli growth 0.64, Ecoli rRNA inh OD600 3.1 and Ecoli rRNA inh RFP 9.6.

Source: PubChem BioAssay
